Calb FLC: C. albicans growth inhibition with fluconazole, primary screen, CaCi-2 strain, Alamar Blue fluorescence. C. albicans CaCi-2 (fluconazole-resistant clinical isolate) + fluconazole, 48 h. growth inhibition, % (test concentration not listed). 0.57% of 300,000 active;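 active means most replicates above 75%; inconclusive means exactly half above 75%; inactive means most below 75%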;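 further: all wells also contain fluconazole at 8 µg/ml as a sub-toxic cotreatment; 0% = median of DMSO wells and 100% = median of geldanamycin control wells; wells of about 8 µL received 7.5 nL stock; the first replicate is given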
HNF4A DNA FP: change in binding of human HNF4A to DNA, primary screen, biochemical, fluorescence polarization, FITC-DNA. Hepatocyte nuclear factor 4-alpha (Homo sapiens), P41235. 1 h. activity change, % at 10 µM. 0.3% of 360,000 active; in the data active means activity change above about 30%, passing the limit was not always enough;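 further: controls were the assay level and a saturating level of protein; the project sought stronger binding though the title names inhibitors; some compounds called inactive have numbers as strong as hits; positive values seem to mean higher polarization but the record does not say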
Target sequence (P41235 whole entry, looked up): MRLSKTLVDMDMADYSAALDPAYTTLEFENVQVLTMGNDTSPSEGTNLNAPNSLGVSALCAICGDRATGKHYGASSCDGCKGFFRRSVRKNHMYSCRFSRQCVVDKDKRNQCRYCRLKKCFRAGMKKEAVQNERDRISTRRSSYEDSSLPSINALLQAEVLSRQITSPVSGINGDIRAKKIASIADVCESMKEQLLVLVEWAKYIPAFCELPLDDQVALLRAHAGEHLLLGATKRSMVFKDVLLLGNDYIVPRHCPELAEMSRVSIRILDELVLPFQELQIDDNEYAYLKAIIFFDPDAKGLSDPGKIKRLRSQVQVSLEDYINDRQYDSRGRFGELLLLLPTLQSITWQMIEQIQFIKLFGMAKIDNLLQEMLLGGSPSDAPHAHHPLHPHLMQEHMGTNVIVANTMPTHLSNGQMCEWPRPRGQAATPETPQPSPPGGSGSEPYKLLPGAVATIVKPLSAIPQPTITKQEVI
Beta2AR agonist: beta2AR agonists driving receptor internalization, primary screen, cell-based, FAP fluorogen, flow cytometry | Am2.2-beta2AR cells; reference of the scale not given here | response, % (concentration not given with the values) | Beta-2 adrenergic receptor (Homo sapiens), P07550 | 0.43% of 340,000 active;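 active means response above a set limit, near 3 SD of response in nonfluorescent compounds, cut at about 42% in these data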;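 further: stock transfer was 100 nL into about 11 µL; a reference agonist was the positive control; negative values mostly stem from fluorescent compounds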
Target sequence (P07550 whole entry, looked up): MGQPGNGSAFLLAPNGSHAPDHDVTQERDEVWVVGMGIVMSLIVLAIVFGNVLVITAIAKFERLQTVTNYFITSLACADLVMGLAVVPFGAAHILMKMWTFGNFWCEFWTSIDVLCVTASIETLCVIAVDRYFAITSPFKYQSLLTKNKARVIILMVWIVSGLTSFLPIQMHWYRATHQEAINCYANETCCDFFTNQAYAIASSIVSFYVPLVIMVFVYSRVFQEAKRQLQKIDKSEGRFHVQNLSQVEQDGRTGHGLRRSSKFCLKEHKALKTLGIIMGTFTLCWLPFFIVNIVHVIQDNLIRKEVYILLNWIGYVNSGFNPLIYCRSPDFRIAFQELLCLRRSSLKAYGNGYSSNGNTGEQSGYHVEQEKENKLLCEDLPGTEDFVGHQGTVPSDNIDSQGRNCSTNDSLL
Vif A3G: inhibitors of Vif binding to APOBEC3G peptide, primary screen, biochemical, TR-FRET, GST-Vif 1-94, biotin-A3G peptide, dose response retest (AID 1117319). 0.57% of 260,000 active. inhibition, %, or IC50 in µM where a hit was titrated. TR-FRET GST-Vif / biotin-A3G peptide binding; higher % means a stronger effect; test concentration not given here; strong numbers were not always called active;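 active means above the screen mean plus three standard deviations and confirmed in dose response; inconclusive means results disagree or hit not tested in dose response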;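 further: Vif residues 1-94 fused to GST binding biotinylated APOBEC3G peptide 110-148; 0% = full assay without inhibitor and 100% = GST in place of GST-Vif; retest series ran down from 100 µM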
RanGTP-Impb inh: inhibitors of RanGTP-importin-beta interaction, primary screen, biochemical, FRET, CFP-Ran, YFP-importin-beta, homogeneous; 1.1% of 300,000 active; inhibition, % (concentration not given with the values); cell-free CFP-Ran/YFP-importin-beta FRET ratio; Ran GTPase (GTP-bound) - importin-beta complex;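 active means most replicates above 15%; inconclusive means exactly half above 15%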;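 further: 0% = DMSO wells and 100% = Ran loaded with GDP instead of GTP; wells of about 40 µL received 100 nL stock; the first replicate is given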
ALR inh: inhibitors of human ALR sulfhydryl oxidase, primary screen, biochemical, H2O2 detection, HRP-luminol luminescence, single point; purified ALR, DTT oxidation; inhibition, % (test concentration not listed); 3.8% of 290,000 active;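 active means mean and each replicate at 75% or more; inconclusive means only one of the two met; inactive means neither met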;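 further: stock transfer was 7.5 nL into about 7.5 µL; 0% = neutral wells and 100% = wells with inactivated enzyme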
Target sequence (P55789 whole entry, looked up): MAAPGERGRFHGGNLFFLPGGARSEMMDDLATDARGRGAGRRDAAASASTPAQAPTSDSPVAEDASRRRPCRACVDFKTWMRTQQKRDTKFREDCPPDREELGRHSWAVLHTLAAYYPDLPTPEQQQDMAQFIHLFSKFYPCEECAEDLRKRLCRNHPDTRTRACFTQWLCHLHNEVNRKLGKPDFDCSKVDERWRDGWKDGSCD
LANA-H2B inh: blockers of LANA interaction with H2A/H2B – biochemical, FP readout, HTS, primary screen | inhibition, % (test concentration not listed) | 0.6% of 320,000 active | cell-free LANA-H2A/H2B peptide, fluorescence polarization | Protein LANA1 (Human herpesvirus 8 type P (isolate GK18)), Q9QR71; in the data active means inhibition mostly above about 10%, no sharp cut-off; inactive means mostly below about 6.7%;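 further: stock transfer was 7.5 nL into about 10 µL; 0% = median of vehicle wells and 100% = median of positive control wells; one replicate is shown; the record names a cut of 25% in any replicate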
An asterisk follows results filed as active; i = inactive; ? = inconclusive; · = not tested or not shown; & = joins results of further samples.

SMILES	Calb FLC	HNF4A DNA FP	Beta2AR agonist	Vif A3G	RanGTP-Impb inh	ALR inh	LANA-H2B inh
CCOc1cc(C2C(C(=O)c3ccc(C)o3)=C(O)C(=O)N2CCc2ccccc2)ccc1O (configuration not stated)	28	2.5	2	19%	0.2	27	0.7
COc1ccc(CN(C)C(=O)CCCNC(=O)c2ccc(Cl)cc2)cc1	-1	-1.0	4	·	1.5	-6	0.8
Cc1ccc(-c2nn(C)c(=O)c3ccccc23)cc1S(=O)(=O)N1CCCC1	2	0.5	-1	3%	?	-44	-2.5
COc1cc2c(cc1OC)C(SC)=NC1(CCCC1)C2	10	-1.4	24	4%	-1.3	-1	0.9
Cc1ccc(/C=N\NC(=O)COc2ccc(C)cc2[N+](=O)[O-])cc1	-6	2.3	-10	15%	4.3	-11	-3.2
CC1(C(=O)NCc2ccccc2)Oc2ccccc2NC1=O (configuration not stated)	-14	4.3	1	-4%	5.9	4	-2.1
O=C(Nc1ccc2c(c1)OCO2)N1CCN(S(=O)(=O)c2ccc(Cl)cc2)CC1	-1	5.9	-1	-2%	12	-54	2.9
Cc1ccccc1C(=NC(=O)c1ccccc1)c1ccccc1	14	2.8	-5	-4%	6.7	-2	-2.8
COc1ccc(NC(=O)c2ccccn2)cc1OC	17	-2.4	0	7%	-3.3	-17	7.5
Cc1nc2ccccc2c(-c2ccccc2)c1C(=O)c1ccccc1	26	0.5	105*	-1%	-0.2	-7	0.7
CC(C)CC(=O)Nc1ccc(C(=O)CN2CCN(c3ccc(O)cc3)CC2)cc1	6	1.3	0	·	0.0	68	0.4
CCOCC(=O)Nc1ccc(OCc2ccccc2)cc1	7	-1.0	-6	3%	-0.2	-21	-10
CC(=O)Nc1ccc(-c2csc(NC(C)c3ccccc3)n2)cc1 (configuration not stated)	0	8.1	1	0%	1.3	3	-4.8
O=C(c1ccc2c(c1)OCCO2)N1CCN(c2ccccn2)CC1	8	-0.5	-5	·	-9.2	4	2.5
CC(=O)Nc1cccn(Cc2c(Cl)cccc2Cl)c1=O	3	1.6	-4	-6%	2.9	-78	-1.5
C=CC[C@H](CC(=O)NCCO)C(=O)N[C@@H](COC(=O)[C@H](CC=C)CC(=O)OC(C)(C)C)Cc1ccccc1	·	3.0	-2	0%	·	-2	i
N#Cc1ccc2[nH]cc(CCO)c2c1	15	-2.1	2	·	1.0	-5	-3.5
O=C(CNc1ccc2ccccc2c1)N/N=C/c1ccc(C(=O)O)cc1	33	0.8	1	1%	0.9	67	-1.7
COC(=O)[C@]1(Cc2ccccc2)N[C@H](CN(C)C(C)=O)[C@@H]2C(=O)N(Cc3ccccc3)C(=O)[C@@H]21	·	-1.6	-5	-2%	·	·	·
COc1ccc(CNCCS(=O)(=O)NN2CCOCC2)cc1	·	1.7	3	-9%	·	·	·
CC(=O)N=c1cccc(NC(C)=O)n1O	7	1.0	-8	-2%	1.8	-4	2.5
CN(C)CCN(C(=O)c1cccc2ccccc12)c1nc2cc3c(cc2s1)OCO3	-5	0.9	4	3%	-0.4	-2	-3.8
COc1ccc(CCNc2cn[nH]c(=O)c2Cl)cc1OC	-5	5.6	0	17%	-0.3	-5	-5.1
COc1ccccc1OCC(=O)NNC(=O)c1ccc(F)c(S(=O)(=O)N2CCOCC2)c1	·	1.9	-2	3%	·	-2	-1.7
C=CCn1c(SCC(=O)Nc2cccc(C)c2)nnc1-c1cnccn1	2	-0.5	-11	7%	-2.2	-2	-2.1
SMILES	Calb FLC	HNF4A DNA FP	Beta2AR agonist	Vif A3G	RanGTP-Impb inh	ALR inh	LANA-H2B inh
COc1ccc(OCCCCN(C)Cc2ccccc2)cc1	5	3.4	-7	·	4.3	4	-0.1
COc1ccc(NC(=O)O/N=C/c2ccccc2Cl)cc1	-11	2.0	2	72%	1.4	-61	0.3
COc1ccc2c(Cl)c(C(=O)N/N=C/c3cccnc3)sc2c1	-7	1.6	-6	·	-3.8	·	1.5
[N-]=[N+]=CC(=O)CC(c1ccccc1)N1C(=O)c2ccccc2C1=O (configuration not stated)	8	1.1	15	4%	-1.9	23	-4.2
CN(C)/C=N/C(=S)Nc1ccccc1Cl	-10	-0.5	5	-20%	-0.2	-1	-2.5
Cc1csc(=O)n1CCC(=O)OCc1nnc(-c2ccccc2Cl)o1	·	0.7	0	·	·	-6	2.2
CCOc1cc(/C=N\NC(=O)c2ccc(NC(=O)C(C)(C)C)cc2)ccc1OC(=O)c1cccc(C)c1	10	-2.8	15	-2%	-0.5	-13	-1.5
CC(NC(=O)COC(=O)c1ccc2ccccc2n1)c1ccccc1 (configuration not stated)	·	2.4	-1	-10%	·	0	-0.3
COc1ccc(C(=O)Nc2ccc(NC(=O)C3CCCCC3)nc2)cc1	-18	4.2	-4	·	6.0	·	-0.3
CN(C)S(=O)(=O)c1ccc(C(=O)NC(=O)CSc2nncs2)cc1	·	-3.3	-3	·	·	21	-1.5
CCCN1CCN(S(=O)(=O)c2ccc3c(c2)NC(=O)C(C)S3)CC1 (configuration not stated)	14	1.4	9	-10%	1.7	5	-0.4
Clc1ccc(N2CCN(c3nc4nonc4nc3N3CCSCC3)CC2)nc1	-15	-0.3	-4	14%	?	-17	3.6
CCN(C(=O)c1cccc(S(=O)(=O)N2CCCCC2)c1)C1CCS(=O)(=O)C1 (configuration not stated)	-2	3.0	7	-7%	-5.2	·	·
Cn1ncc(Cl)c1C(=O)NCC1CCCO1 (configuration not stated)	10	-2.6	4	0%	5.4	-9	14*
O=C(COc1cccc2cccnc12)N/N=C/c1ccc(O)cc1	47	5.9	-3	0%	-0.3	99*	-1.7
CC(=O)Nc1nnc(SCC(=O)c2ccc(F)cc2)s1	33	-4.7	-8	24%	4.8	-5	0.3
CCc1c(C)nc(SCCOc2ccc(OC)cc2)[nH]c1=O	16	0.5	-4	?	1.0	-3	-2.7
CC1CCN(CCCNC(=O)C2CCC(=O)N2C2CCCC2)CC1 (configuration not stated)	1	-2.5	-2	-13%	2.2	-15	-1.0
CN1C(=O)/C(=C/c2ccc(OCc3ccccc3F)cc2)NC1=S	-2	-1.0	-2	0%	0.5	-7	5.8
CC1(C)CC[C@]2(C(=O)O)[C@H](O)C[C@]3(C)C(=CCC4[C@@]5(C)C[C@H](O)[C@H](O)[C@@](C)(CO)C5CC[C@]43C)[C@@H]2C1 (some centres not stated)	-6	0.2	18	·	-1.3	-5	6.0
O=C(NCc1ccco1)C1Cc2cc(Cl)ccc2O1 (configuration not stated)	5	1.3	-2	·	1.3	·	-0.1
COC(=O)c1ccccc1CCC(C)=O	2	-2.7	4	0%	-3.2	3	2.6
O=C(N/N=C/c1ccoc1)c1ccccc1F	-10	-2.0	3	12%	-0.3	-2	-11
Cc1cc(C(=O)OCC(=O)NCc2ccc3c(c2)OCO3)c2ccccc2n1	-24	4.5	2	-5%	-0.6	-14	-1.2
COc1ccc(C)c2sc(N3CCCC3)nc12	9	-2.9	3	-1%	3.3	38	-2.2
SMILES	Calb FLC	HNF4A DNA FP	Beta2AR agonist	Vif A3G	RanGTP-Impb inh	ALR inh	LANA-H2B inh
O=C(O)c1ccc(OCC(F)(F)F)nc1	-6	8.1	7	-5%	2.7	-9	5.3
CC(=O)Nc1cccc(C(=O)NC2CCCc3c2cnn3-c2ccccc2F)c1 (configuration not stated)	4	1.2	-4	·	0.7	5	2.1
COc1ccccc1OCCNc1ccc(S(=O)(=O)N2CCCC2)cn1	·	3.4	-4	-12%	·	·	·
CCOc1ccc(Nc2oc(Cc3ccccc3)nc2C#N)cc1	28	-2.3	17	1%	-0.6	-7	-1.8
COCCn1c(=S)[nH]c2sc3c(c2c1=O)CCC(C)C3 (configuration not stated)	1	2.0	4	·	-1.5	32	-3.3
COc1cccc(/C=C/C(=O)OCC(=O)NC(=O)NC2CCCC2)c1	·	1.4	-9	·	·	-3	-11
CSc1cccc(NC(=O)C2C3C=CC4(O3)C2C(=O)N(CCN2CCOCC2)C4C(=O)NC2CCCCC2)c1 (configuration not stated)	-7	-2.6	2	·	-3.0	4	-3.2
O=C(CNC(=O)c1cccc(OC(F)F)c1)OCC(=O)c1ccccc1	-14	3.7	6	-7%	3.5	0	0.9
CCCn1c(=N)c(C#N)cc2c(=O)n3ccccc3nc21	29	21	0	8%	179*	-1	13*
CSc1ccc(/C=C(\NC(=O)c2ccc(C)cc2)C(=O)NN)cc1	11	3.5	-2	1%	4.7	5	8.1
CCN(C(=O)CN1C=NS(=O)(=O)c2ccccc21)c1ccccc1	7	1.9	6	26%	2.6	1	-2.2
COc1ccc2ccccc2c1/C=N/NC(=O)c1nnn(-c2nonc2N)c1C(C)C	?	-1.1	0	·	9.5	17	-2.6
Cc1cc(C(=O)COC(=O)c2ccc(Cl)c(S(N)(=O)=O)c2)c(C)n1CC1CCCO1 (configuration not stated)	0	3.8	0	3%	-1.5	·	0.2
COc1cc(-n2c(=O)c3ccccc3n(Cc3ccccc3)c2=O)cc(OC)c1OC	-5	0.4	6	-5%	-4.2	-9	1.9
COc1ccccc1NC(=O)c1nn(-c2cccc(C(F)(F)F)c2)ccc1=O	-1	1.1	-3	-3%	-4.3	6	0.7
Cc1cccc(NC(=S)NC2CC3CCCC(C2)N3Cc2ccccc2)c1C (configuration not stated)	-9	3.7	-3	?	-2.3	-5	-3.1
O=C(NCC1CCCO1)C1CCN(S(=O)(=O)c2ccc(Br)cc2)CC1 (configuration not stated)	-1	-1.5	-4	1%	-2.2	-25	-0.8
CC(=O)c1cccc(NS(=O)(=O)N2CCCCC2)c1	-5	-1.3	-1	2%	-7.7	3	-5.2
COC(=O)c1sc(N2C(=O)C(O)=C(C(=O)c3ccc(C)o3)C2c2ccc(F)cc2)nc1C (configuration not stated)	54	16	7	31%&-60%	3.5	5	-0.2
CC(=O)Nc1ccc(NC(=O)C(C)OC(=O)C2CCN(S(=O)(=O)c3cccs3)CC2)cc1 (configuration not stated)	-8	2.4	-1	12%	-3.7	-1	2.2
O=C(COc1ccccc1Cl)Nc1ccc(S(=O)(=O)N2CCOCC2)cc1	-1	0.0	3	·	1.3	-2	0.1
COC(=O)CNC(=O)COC(=O)c1cc(SC)ccc1Cl	-6	4.8	-3	-9%	-1.4	0	3.2
O=C(CCn1c(=S)oc2ccccc21)Nc1cccc(O)c1	-14	-0.7	-8	-5%	4.5	62	2.0
CCn1c(C)cc(/C=C2\NC(=O)N(Cc3ccc(Cl)cc3)C2=O)c1C	7	7.2	-6	2%	-2.8	0	-0.9
COC(=O)C1C2C=CC3(CN(C4CCCC4)C(=O)C13)O2 (configuration not stated)	1	-2.6	-2	0%	7.2	·	-0.7
O=C(NC1CCN(C(=S)Nc2ccc(Cl)cc2)CC1)c1ccco1	1	3.0	-7	-1%	8.7	-7	-1.4

Looked up one by one from the list above (five):
SMILES	Calb FLC	HNF4A DNA FP	Beta2AR agonist	Vif A3G	RanGTP-Impb inh	ALR inh	LANA-H2B inh
COc1ccc2ccccc2c1/C=N/NC(=O)c1nnn(-c2nonc2N)c1C(C)C	?	-1.1	0	·	9.5	17	-2.6
CC(=O)Nc1cccc(C(=O)NC2CCCc3c2cnn3-c2ccccc2F)c1 (configuration not stated)	4	1.2	-4	·	0.7	5	2.1
COC(=O)C1C2C=CC3(CN(C4CCCC4)C(=O)C13)O2 (configuration not stated)	1	-2.6	-2	0%	7.2	·	-0.7
COc1ccccc1OCCNc1ccc(S(=O)(=O)N2CCCC2)cn1	·	3.4	-4	-12%	·	·	·
O=C(NCC1CCCO1)C1CCN(S(=O)(=O)c2ccc(Br)cc2)CC1 (configuration not stated)	-1	-1.5	-4	1%	-2.2	-25	-0.8
